# YjeE inh = qHTS Assay for Inhibitors of YjeE | tRNA threonylcarbamoyladenosine biosynthesis protein TsaE (Escherichia coli (strain … | purified YjeE, fluorescence polarisation of a bound ADP probe | Potency, µM | actives 0.05% (n = 71,000) | AID 605, 2007; active = well fitted falling curve; inconclusive = weaker or top-dose-only fall, or a rising curve; inactive = flat or poorly fitted curve;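 note: top concentration of the series not given in the record; excess ADP was the control for the full effect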
#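 Purified YjeE (10 uM) with BODIPY Texas Red-labeled ADP probe (2 uM); compounds pin-transferred, 15 min at room temperature. Binding inhibition read as decreased fluorescence polarization; ADP titration as control.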
# PK Bst = Pyruvate Kinase; Potency, µM; AID 361, 2006; partly purified Bacillus stearothermophilus pyruvate kinase, luminescence ATP production; ribose 5-phosphate activator present at AC10; actives 1.2% (n = 51,000); in the data active means potency below about 11 µM; inconclusive means mostly about 12 µM to 25 µM; inactive means weaker than that;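 the screen sought inhibitors and activators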;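 note: potency is the fitted concentration of half-maximal effect; scaled between full activation by ribose 5 phosphate and full inhibition by luteolin; about four in five hits inhibit and the cells do not say which; series up to 57 µM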
# An asterisk follows results filed as active; i = inactive; ? = inconclusive; nt = no result given. Some of the compounds tested, so the mix of outcomes need not match the whole.
SMILES,YjeE inh,PK Bst
Cc1ccc(C2CC(C(F)(F)F)n3nc(C(=O)NCCN4CCOCC4)cc3N2)cc1 (centres undefined),i,>57
COc1cccc(-n2ccnc2SCC(=O)N2CCc3ccccc32)c1,i,>57
O=C(Oc1ccc(-c2nnco2)cc1)N1CCCCC1,i,>57
COc1ccccc1-c1nc(NCCN2CCOCC2)c2ccccc2n1,i,nt
CC(C)(C)NC(=O)C1CCCN(S(=O)(=O)c2cccc3cccnc23)C1 (centres undefined),i,nt
Cn1c(=O)c2c(ncn2C[C@@H](O)CO)n(C)c1=O,i,nt
COC(=O)[C@@H](N)Cc1ccc(O)cc1,nt,>26
CCN(CC)c1ccc(NC(=O)CN2CCN(CC(=O)Nc3ccccc3F)CC2)cc1,i,>57
O=C(Nc1ccc2c(c1)OCO2)c1ccncc1,i,nt
CCOC(=O)N1CCC(NC(=O)C2CCCN(Cc3nc(-c4cccc(Cl)c4)oc3C)C2)CC1 (centres undefined),i,nt
Cc1cc(NC(=O)Nc2cccc3ccccc23)no1,i,nt
O=C1CC2CS(=O)(=O)CC2N1c1ccc(Cl)cc1Cl (centres undefined),i,?
Cn1c(=O)c2ncn(CC(=O)Nc3ccc4oc(-c5cccc6ccccc56)nc4c3)c2n(C)c1=O,i,>57
COC(=O)C1C(=O)c2c(n[nH]c2C)CC1(C)C (centres undefined),i,>57
CC1(C)CC(=O)C2=C(C1)OC1=C(C(=O)CC(C)(C)C1)C2c1ccc(O)cc1O,?,nt
Cc1ccc(CN(c2ccc(C(=O)N3CCCC3)cc2)S(C)(=O)=O)cc1,i,nt
COc1ccc(NC(=O)CSc2nnc(-c3ccoc3C)n2CCc2ccccc2)cc1,i,>57
NCCCCCc1nnc(SCC(=O)c2ccc(Cl)cc2)o1,i,nt
COc1cc(C(=O)Nc2ccc3c(c2)OCCO3)ccc1OC(C)C,i,i
O=C(NS(=O)(=O)c1ccccc1)c1ccccc1O,i,>57
CCCCNC(=O)Nc1c(C(=O)OCC)[nH]c2ccccc12,i,>57
CSc1ncccc1C(=O)OCC(=O)N(CC(C)C)C1CCS(=O)(=O)C1 (centres undefined),i,>57
CCc1c2c(nc3ccc(OC)cc13)COC2,i,nt
CCc1cc2c(=O)c(-c3nc4ccccc4n3C)c(C)oc2c(CN2CCOCC2)c1O,i,nt
O=C(CCCN1C(=O)C2C3C=CC(C3)C2C1=O)N1CCN(c2ccccc2)CC1 (centres undefined),i,>57
CCc1ccccc1NC(=O)c1cc(C2CC2)on1,i,nt
COc1cc(-c2nc(-c3ccc(-c4ccccc4)nc3OC)no2)cc(OC)c1OC,i,>57
c1ccc(-c2noc(-c3ccc4c(c3)OCO4)n2)nc1,i,0.86*
CC(C)C(NC(=O)C1CCCCC1)C(=O)Nc1ccncc1 (centres undefined),i,>57
CC(NC(=O)CSc1nc2ccccc2c(=O)n1CCCO)c1ccccc1 (centres undefined),i,>57
COc1ccc(CC(=O)N(Cc2cc3cc(OC)ccc3[nH]c2=O)C(C)C)cc1,i,>57
COc1ccc(CNc2nc(-c3c(C)noc3C)nc3ccccc23)c(OC)c1,i,nt
O=C(Nc1ccccc1)c1cnc[nH]1,i,>11
CCOc1ccc(N(CC(=O)NC2CCCCC2)S(=O)(=O)c2c(C)noc2C)cc1,i,nt
CCCc1nnc(NC(=O)CNc2ccc(F)cc2)s1,i,nt
O=C(Nc1ccc(S(=O)(=O)N2CCOCC2)cc1)c1ccc(Br)o1,i,>57
Cc1cc(NC(=O)CCCC(=O)N(CC(=O)NCCc2ccccc2)Cc2ccc(F)cc2)no1,i,>57
C[C@]12CC[C@H]3c4ccc(O)cc4CC[C@@H]3[C@H]1CC[C@@H]2OP(=O)(O)O,i,nt
CCCOc1ccccc1NC(=O)CC1Nc2ccccc2NC1=O (centres undefined),i,>57
CN1CCCC2(CCN(C(=O)c3cnccn3)CC2)C1,i,nt
CCC(=O)N1CCCc2cc(S(=O)(=O)N3CCCc4ccccc43)ccc21,i,>57
CC(C)[C@@H](CC(=O)N[C@@H]1CCCC[C@H]1C(=O)N[C@H](CC(=O)N[C@@H](CCC(=O)O)CC(=O)O)Cc1ccccc1)NC(=O)C[C@H](CO)NC(=O)[C@@H]1CNCC[C@H]1N,i,nt
C=CCSC1=C(C#N)C(c2cccc(OC)c2)CC(=O)N1 (centres undefined),i,>57
CCN(CC)CCCC(C)n1c(-c2ccccc2)nc2c(NCCO)nc(C)nc21 (centres undefined),i,nt
COc1ccc(OC)c(Nc2cc(C)nc3nc(C)nn23)c1,i,nt
CCCNC(=O)NS(=O)(=O)c1ccc(Cl)cc1,i,>26
COc1cccc(-c2nnn(CC(=O)NC3CCCC3)n2)c1OC,i,>57
CCCn1c(SCC(=O)Nc2ccc3c(c2)OCO3)nc2c1c(=O)n(C)c(=O)n2C,i,>57
O=C(Cc1cn2ccsc2n1)Nc1nc2c(s1)CN(Cc1ccccc1)CC2,i,>57
COc1cccc(C(=O)N2CCN(S(=O)(=O)Cc3ccccc3)CC2)c1OC,nt,>26

# More compounds follow.
SMILES,YjeE inh,PK Bst
O=C(c1ccncc1)N1C2C=CC(C2)C1(C(F)(F)F)C(F)(F)F (centres undefined),i,>57
CCCCS(=O)(=O)Nc1ccc(C(=O)NCC2CCCO2)cc1 (centres undefined),i,>57
COc1ccccc1C1C(C(N)=O)=C(C)Nc2nc(-c3ccc(Cl)cc3)nn21 (centres undefined),i,nt
COc1ccc(C(=O)N2CCC3(CC2)CN(CC(C)C)C3)cc1,i,nt
CCOC(=O)N1CCC(NC(=O)CSc2cc(=O)n(C)c3ccc(Cl)cc23)CC1,i,>57
O=C1Nc2c(c(=O)[nH]c(=O)n2-c2ccccc2)C1(Nc1ncccn1)C(F)(F)F (centres undefined),i,>57
Cc1cc(S(=O)(=O)NCc2cccnc2)ccc1-n1cnnn1,i,>57
Cc1cc(N2CCN(C(=O)c3ccco3)CC2)nc(-c2ccccc2)n1,i,>57
C=CCOC(=O)C1C(=O)CC(C)(O)C(C(=O)OCC=C)C1c1ccc(OC)cc1 (centres undefined),i,>57
Cc1c(-c2ccco2)[n+](=O)c2c(n1[O-])CCCCC2,i,nt
Cc1cc(N(CN2CCCC2=O)C(=O)c2ccc(F)cc2)no1,i,>57
CCOC(=O)NC(=O)COC(=O)Cc1cc(OC)c(OC)c(OC)c1,i,>57
C1CCN(c2nc3nonc3nc2N2CCCCC2)CC1,i,nt
Cc1occc1C(=O)n1cnc2ccccc21,i,>57
Cc1oc(-c2cccc(Cl)c2)nc1CN1CCCC(C(=O)NC(C)c2ccc3c(c2)OCCO3)C1 (centres undefined),i,nt
O=S1(=O)CCN2C(c3ccco3)=CSC2=N1,i,>57
O=C(C1CCN(c2nnc(-n3cccc3)s2)CC1)N1CCN(Cc2ccc3c(c2)OCO3)CC1,i,nt
C=Cc1c(C)c2cc3[nH]c(cc4nc(cc5nc(cc1[nH]2)C(C)=C5CCC(=O)O)C(CCC(=O)O)=C4C)c(C)c3C=C,?,nt
COC(=O)Nc1c(-c2ccccc2)nc2ccc(C)cn12,i,>57
O=C(C1CC1)N1CCc2cc(Br)cc(S(=O)(=O)NC3CCCCC3)c21,i,>57

# Gathered by group: the entries above containing an aryl thioether with sulfur outside any ring.
SMILES,YjeE inh,PK Bst
COc1cccc(-n2ccnc2SCC(=O)N2CCc3ccccc32)c1,i,>57
COc1ccc(NC(=O)CSc2nnc(-c3ccoc3C)n2CCc2ccccc2)cc1,i,>57
NCCCCCc1nnc(SCC(=O)c2ccc(Cl)cc2)o1,i,nt
CSc1ncccc1C(=O)OCC(=O)N(CC(C)C)C1CCS(=O)(=O)C1 (centres undefined),i,>57
CC(NC(=O)CSc1nc2ccccc2c(=O)n1CCCO)c1ccccc1 (centres undefined),i,>57
CCCn1c(SCC(=O)Nc2ccc3c(c2)OCO3)nc2c1c(=O)n(C)c(=O)n2C,i,>57
CCOC(=O)N1CCC(NC(=O)CSc2cc(=O)n(C)c3ccc(Cl)cc23)CC1,i,>57

# (listing goes on)
SMILES,YjeE inh,PK Bst
CCCCn1c(CCC(=O)O)ccc1-c1cccs1,i,nt
CCCCN1C(=O)C2C(C(=O)Nc3cccc(OC)c3)C3C=CC2(O3)C1C(=O)NC1CCCCC1C (centres undefined),i,>57
CCOCCCNCc1ccc(OC)c(OC)c1,i,>57
OCc1ccccc1,i,nt
O=C(CCNS(=O)(=O)c1ccc(Br)s1)N1CCN(c2ccccc2)CC1,i,>57
COc1ccc(NC(=O)CCCn2c(=O)[nH]c3ccccc3c2=O)cc1,i,>57
CN(CCc1ccccn1)C(=O)c1nn2c(C(F)(F)F)cc(-c3ccco3)nc2c1Cl,i,nt
O=C(NCC1CCCO1)c1ccc2nc(N3CCCCC3)sc2c1 (centres undefined),i,nt
COc1ccc(-n2nnnc2SCC(=O)c2ccc(O)c(O)c2)cc1,i,>57
Cc1nn(CC(=O)Nc2ccc(C(=O)N(C)C)cc2)c(=O)c2ccccc12,i,>57
CCCOc1ccc(N2CC(C(=O)Nc3ccccc3F)CC2=O)cc1 (centres undefined),i,>57
CN1CC(=O)N(CC(=O)Nc2ccc(Cl)c(C(F)(F)F)c2)C1=O,i,>57
CCc1nnc2c3cnn(-c4ccccc4)c3ncn12,i,>57
CCOC(=O)N1CCN(C(=O)c2cn(C)c(=O)c3c2c2ccccc2n3C)CC1,i,>57
COc1ccc(C(=O)N2CCN(c3c(C)cccc3C)CC2)cc1OC,i,nt
Cc1cc(C)c2c(=O)[nH]c(=O)n(Cc3ccccc3)c2n1,i,>57
Cc1ccc(C(C(=O)NCc2ccc(F)cc2)N(C(=O)c2csnn2)C2CC2)o1 (centres undefined),i,>57
CCCCNC(=O)c1cccc(C(=O)NCCCC)c1,i,>57
CC1(C)CC(=O)CC(=Nc2ccc(C(=O)O)cc2)C1,i,>57
Cc1ccccc1Cn1cc(S(=O)(=O)CC(=O)N2CCCCC2)c2ccccc21,i,>57
COC(=O)c1ccc(Cn2nnc3ccccc3c2=O)o1,i,i
Cc1ccc2oc(=O)c3cnn(CC(=O)N4CCCCCC4)c3c2c1,i,nt
CCOC(=O)N1CCN(C(=O)c2cn(CC)c3ccc(S(=O)(=O)N4CCCC4)cc3c2=O)CC1,i,>57
COc1cccc(-c2cc(C(F)(F)F)nc(N3CCN(c4ccccc4)CC3)n2)c1,i,>57
COc1cc(NC(=O)CN2C(=O)NC(C)(CC(C)C)C2=O)cc(OC)c1 (centres undefined),i,>57
CCCCOC(=O)c1cccc(NC(=O)CC)c1,i,>57
Cc1c(NC(=O)c2noc3c2CCc2ccccc2-3)c(=O)n(-c2ccccc2)n1C,i,nt
O=C(CSc1nnc(-c2ccco2)n1CC1CCCO1)N1CCCCC1 (centres undefined),i,>57
O=C1Nc2ccccc2C12Nc1ccccc1S2 (centres undefined),i,>57
O=S(=O)(N1CCCCC1)N1CCN(c2ccc(F)cc2)CC1,i,>57
CCCOc1cccc(NC(=O)c2cc(C)oc2C)c1,i,nt
CC(=O)c1ccc(N2CCN(C(=O)c3cc4c(-c5ccccc5F)nn(C)c4s3)CC2)cc1,i,nt
COC(=O)[C@@]1(Cc2ccc(OC)cc2)[C@H]2c3cc(C(=O)N4CCCC4)n(CCN4CCOCC4)c3C[C@H]2CN1C(=O)c1ccccc1,i,nt
CCCS(=O)(=O)N1CCN(CCCc2ccccc2)CC1,i,>57
O=C(c1ccc2c(c1)OCO2)N1CCCC(c2ccccc2)C1 (centres undefined),i,>57
Cc1cc2ccccc2cc1CN1CCOCC1,i,nt
CCC(NS(=O)(=O)c1ccc(C)cc1)C(=O)N1CCC2(O)CCCCC2C1 (centres undefined),i,>57
COc1cccc(-n2c(SCC(=O)Nc3cc(C)on3)nc3c([nH]c4ccccc43)c2=O)c1,i,nt
Cc1nc2ccccc2nc1-c1ccc(N=[N+]([O-])c2ccc(-c3nc4ccccc4nc3C)cc2)cc1,i,nt
CC(=O)NCC(=O)OCC(=O)Nc1ccc(C(C)=O)cc1,i,>57

# Compounds listed so far that contain two or more sulfur atoms:
SMILES,YjeE inh,PK Bst
CSc1ncccc1C(=O)OCC(=O)N(CC(C)C)C1CCS(=O)(=O)C1 (centres undefined),i,>57
O=C(Cc1cn2ccsc2n1)Nc1nc2c(s1)CN(Cc1ccccc1)CC2,i,>57
O=S1(=O)CCN2C(c3ccco3)=CSC2=N1,i,>57
O=C(CCNS(=O)(=O)c1ccc(Br)s1)N1CCN(c2ccccc2)CC1,i,>57

# Next section
SMILES,YjeE inh,PK Bst
O=C(O)CCCn1nc(-c2ccccc2)c2ccccc21,i,nt
O=C1c2ccccc2C(=O)N1CCn1nc(Cl)nc1Cl,i,>57
CC1CCN(c2c(NCc3ccc(C(=O)NCC4COc5ccccc5O4)cc3)c(=O)c2=O)CC1 (centres undefined),i,nt
O=C(c1ccco1)n1nc(NCc2ccccc2)nc1NCc1ccccc1,i,>57
COCC(C)n1c(C)cc(C(=O)CSc2nc3ccccc3c(=O)[nH]2)c1C (centres undefined),i,>57
Cc1ccc(NC(=O)c2cc(NC(=O)C3CC=CCC3C(=O)O)ccc2N2CCOCC2)cc1 (centres undefined),i,nt
O=C(CCn1nc(-c2ccccc2)ccc1=O)N1CCCC1,i,>57
CC(C)N(Cc1nc(-c2ccccc2)no1)C(=O)CN(C)S(=O)(=O)c1ccccc1,i,>57
N#C/C(=C\N1CCN(Cc2ccc3c(c2)OCO3)CC1)c1nc2ccccc2s1,nt,>11
CCN(CC)C(=O)C1CCN(Cc2cccc(OCc3ccccc3)c2)CC1,i,>57
O=C(CN1C(=O)COc2ccccc21)NCc1ccc(C(=O)O)cc1,i,>57

# Compound activity as filed in PubChem BioAssay.
